NPYLR7 agonist – activates Aedes aegypti NPYLR7 receptor. HEK293T NPYLR7/Galpha15, GCaMP6s calcium fluorescence. activation, % at 10 µM. actives 0.15% (n = 270,000); in the data active = activation above about 40%;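 note: 0% = vehicle and 100% = reference agonist at the receptor; some compounds past the cut are filed as inactive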
NPYLR7 agonist max-min – further read-out of NPYLR7 agonist, marked with its call; activation, %; measured here: Max-Min RFU normalised activation; some inactives read as strong as hits;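 span of the calcium signal over five minutes; 0% = vehicle and 100% = native peptide agonist; compound fluorescence can raise it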
An asterisk follows results filed as active; & = joins results of further samples. Not all compounds are listed. The share of hits here may be higher or lower than overall.

SMILES	NPYLR7 agonist	NPYLR7 agonist max-min
COc1ccccc1C(=O)NN=C1N=NC(Cc2ccc(C)cc2)C(=O)N1 (stereo not given)	7	6
COc1cccc(-n2c(=O)[nH]c3sc4c(c3c2=O)CCN(C(=O)Cc2ccc(Cl)cc2)C4)c1	6	7
Cc1cc(CS(=O)(=O)c2nc(C)c(C)n2C(C)C2CC3CCC2C3)on1 (stereo not given)	15	11
Cc1cccn2cc(CNC(=O)c3cn(CC4CCCNC4)nn3)nc12 (stereo not given)	2	-1
Cc1sc2ncnc(SC(C)C(=O)O)c2c1C (stereo not given)	8	4
Cc1ccnc(N2CCC(C3CCN(Cc4cccnc4)CC3)C2)c1 (stereo not given)	0	-2
COCCn1c(C)cc(O)c(C(c2ccc(OC)cc2)N2CCN(C)CC2)c1=O (stereo not given)	11	-1
CCN(CC)CCNC(=O)c1ccc(NC(=O)Cc2ccccc2F)cc1	-1	-4
Cc1cc(-c2nnc3sc(-c4ccc5ccccc5n4)nn23)n[nH]1	-6	-14
CC(=O)Nc1cc(-c2ccccc2)nn1-c1ccc(C(=O)N[C@@H](C)[C@H](O)c2ccccc2)cc1	-8	-12
Cc1cccc2[nH]c(CCN(C)C(=O)c3cccc4ccnn34)nc12	8	7
CCOC(=O)c1cc(-c2cccc(NC(=O)c3cc(C)nn3C)c2)n(-c2cccc(F)c2)n1	24	10
CN1CCC2(CCC1=O)CCN(c1nccc(C(F)(F)F)n1)CC2	-2	0
Cc1ccc(CN2CCN(N=Cc3ccc(Br)cc3)CC2)c(C)c1	-6	-11
CCc1cnc(CNC(=O)NC(CC)CO)s1 (stereo not given)	1	1
COc1ccc(-c2cc(C(=O)N3CCN(c4cccc(C(F)(F)F)c4)CC3)n3nc(C(C)(C)C)cc3n2)cc1	11	15
CCOC(=O)c1ccc(NC(=O)N2CCC3(CC2)C(=O)N(CC(=O)NCCCOC)CN3c2ccccc2)cc1	22	31
COc1cccnc1C(=O)N1CCOC(c2ccc(Cl)c(Cl)c2)C1 (stereo not given)	3	-1
Cc1ccc(Sc2c(C)nn(C(=O)c3cccnc3)c2C)cc1	-1	1
CCc1c(C)nn(-c2ccc(C(=O)Nc3cccc(Cl)c3)cc2)c1C	-10	-15
O=C(CN1CN(c2ccccc2)C2(CCN(C(=O)Nc3cc(C(F)(F)F)cc(C(F)(F)F)c3)CC2)C1=O)NCc1ccc2c(c1)OCO2	14	12
O=c1cc(CSc2nnc3ccccn23)c2c(ccc3ccccc32)o1	5	3
CCn1c(C2CCCNC2)nn(Cc2ncccn2)c1=O (stereo not given)	5	4
Cc1cc(N2CCC3(CCNC(=O)CC3)CC2)nc(-c2ccccc2O)n1	13	8
O=C(Nc1cccc(F)c1)c1nn(-c2ccccc2)c(=O)n(Cc2ccccc2Cl)c1=O	13	13
CCOC(=O)CC(=O)CSC1=NS(=O)(=O)c2cc(Cl)ccc2N1	9	3
Cc1cc(NC(=O)CN2CCOC(C)(C)C2)n(-c2ccccc2)n1	0	-1
CCOC(=O)c1nc2cc(Cl)c(Cl)cc2nc1N1CCN(C(=O)C(C)Cl)CC1 (stereo not given)	4	1
CCOC(=O)C(C)Oc1ccc2c(=O)c(Oc3ccc(OCC)cc3)coc2c1 (stereo not given)	-6	-10
COc1ccc(CN(Cc2ccc(F)cc2)C(=O)c2ccccc2Cl)cc1OS(=O)(=O)c1ccc(NC(C)=O)cc1	16	9
Cc1ccc(C)c(-n2cc(CN(C)Cc3cnn(C)c3)c(-c3ccccc3)n2)c1	5&1	9&-4
NCc1cn(C2CCN(Cc3ccc(-c4ccccc4Cl)o3)CC2)nn1	19	7
C=CCCC(O)CN(CCN1CCOCC1)Cc1cccn1Cc1cccc(OC)c1 (stereo not given)	-1	3
CCCc1[nH]n(-c2ccc(Cl)c(Cl)c2)c(=O)c1C1=C([n+]2cccc(C)c2)C(=O)N(CCOC)C1=O	6	9
O=C(CCCCCCC(=O)N/N=C\C1CC2CCC1C2)N/N=C\C1CC2CCC1C2 (stereo not given)	8	19
NC(=O)C1CCN(C(c2ccc(F)cc2)C2Sc3ncnn3C2=O)CC1 (stereo not given)	10	10
CC(C)n1ncc2cc(NC(=O)N3CCN(C(=O)N4CCCCC4)CC3)cnc21	-7	-7
CN(C(=O)C=CC(=O)O)C1CCCCC1	1	10
CCN(C)c1c(C)nc2c(OCc3ccccc3C(=O)OC)cccn12	-2	-4
Fc1c(F)c(F)c(-n2c(-c3cc(-c4ccccc4)nc4ccccc34)n[nH]c2=S)c(F)c1F	-5	-11

Next part (4 carried over from the part before).
SMILES	NPYLR7 agonist	NPYLR7 agonist max-min
CC(C)n1ncc2cc(NC(=O)N3CCN(C(=O)N4CCCCC4)CC3)cnc21	-7	-7
CN(C(=O)C=CC(=O)O)C1CCCCC1	1	10
CCN(C)c1c(C)nc2c(OCc3ccccc3C(=O)OC)cccn12	-2	-4
Fc1c(F)c(F)c(-n2c(-c3cc(-c4ccccc4)nc4ccccc34)n[nH]c2=S)c(F)c1F	-5	-11
Cc1cccc(NC(=O)CC(NCCCN(C)C)C(=O)O)c1 (stereo not given)	23	30
COc1ccc(-c2nc(Cn3ccn4nc(-c5ccc(C)cc5)cc4c3=O)c(C)o2)cc1	-2	-6
COc1ccc(CN(C)C(=O)c2ccc(=O)[nH]c2)cc1	4	2
O=C1c2ccc3c4c(c(Nc5ccccc5)cc(c24)C(=O)N1c1ccccc1)C(=O)N(c1ccccc1)C3=O	-1	-5
O=C(Nc1cccc2c1C(=O)c1ccccc1C2=O)c1ccc(S(=O)(=O)N2CCCCC2)cc1	-2	-8
COc1ccc(OC)c(NC(=O)N2CCN(CC(OCc3cccc(C)c3)c3ccc(Cl)cc3)CC2)c1 (stereo not given)	-3	-1
COc1ccc(Cl)cc1CS(=O)CCC(=O)Nc1ccccc1 (stereo not given)	1	0
CCCOc1ccc2ccccc2c1/C=N\n1c(C)nnc1-n1nc(C)cc1C	5	3
CN(C)S(=O)(=O)c1cccc(C[n+]2cccc(-c3ccccc3)c2)c1	1	-6
Cn1cc(Br)cc1C(=O)NNC(=O)c1cc(Cl)ccn1	-4	-3
COc1cc2c(cc1-c1nccn1CC1CCCOC1)OCO2 (stereo not given)	7	-1
CC(C)CN1CCC(NC(=O)C(C)Oc2ccc(Br)cc2F)CC1 (stereo not given)	10	8
Cc1ccc(C2=NC(=Cc3ccc(N4CCOCC4)s3)C(=O)O2)cc1[N+](=O)[O-]	14	7
COc1ccccc1C(=O)Oc1coc(CSc2ncccn2)cc1=O	-17	-9
Cc1ccc(Cl)c(OC2CC3CCC(C2)N3C(=O)c2ccc(CSc3ccc(F)cc3F)cc2)c1 (stereo not given)	13	13
O=C1CC(=NC2CC2)C2(CCCCC2)O1	3	4
CSc1ccccc1NC(=O)Cn1nc(C(F)(F)F)c(Br)c1C	-1	-7
Cc1c(-c2ccccc2)c(=O)oc2c3c(ccc12)OCN(C1CC1)C3	-9	-15
COc1ccccc1CN1CC(C(=O)NCc2cc(F)ccc2C)CCC1=O (stereo not given)	5	3
O=C(O)c1csc(CSc2nnc(-c3ccco3)n2-c2ccccc2F)n1	14	12
COc1cc(CNC(=O)NCC2CCN(Cc3cccs3)CC2)ccn1	0	18
CCCc1cc(=O)[nH]c(-n2nc(C)cc2NC(=O)/C=C/c2cc(OC)c(OC)c(OC)c2)n1	12	7
O=C(N=Nc1c(O)[nH]c2ccc(Br)cc12)c1cccc(Cl)c1	-3&3	-8&-10
COc1ccc(-c2nnc3ccc(SCC(=O)N4CCCC4)nn23)cc1	3	21
CCc1csc(CNC(=O)c2cccc(-n3cccn3)c2)n1	2	1
O=C1C2CC=CCC2C(=O)N1Cc1ccccc1 (stereo not given)	-5	-4
CC1(C)CC(C=Cc2cccs2)=Nc2ccccc2S1	-2	-5
O=c1[nH]c(CNCc2ccco2)nc2sc3c(c12)CCCC3	13	20
COn1c2c(c3c4nonc4ccc31)CCCC2	3	3
CNCc1cn(C2CCN(Cc3c(OC)ccc(F)c3F)CC2)nn1	20	4
CNC(=O)C1CN(CC(=O)Nc2ccccc2C(C)=O)c2ccccc2O1 (stereo not given)	15	12
O=C(/C=C/c1ccccc1)N1CCN(c2nc(Cc3ccccc3)nc3onc(-c4cccc(Oc5ccccc5)c4)c23)CC1	1	-2
CC=CC=CC(=O)OCc1cc(=O)n2cc(Br)ccc2n1	3	11
CC1(Cc2ccc(OC(F)(F)F)cc2)C(=O)Nc2ccccc21 (stereo not given)	1	3
O=C(CSc1nnc(SCC(=O)NC2CCCCC2)s1)NC1CCCCC1	8	8
CN1C[C@@H]2CC[C@H](CC1=O)N2C(=O)c1ccc2c(c1)N(C)C(=O)CO2	1	-2
CCOc1ccccc1C1C2=C(CC(c3ccc(Cl)cc3)CC2=O)N=C(C)C1C#N (stereo not given)	8	6
Cc1ccc(NC(=O)CC(C(=O)O)N2CCNCC2)cc1 (stereo not given)	-7	-5
Cc1cc(N(C)CCCc2[nH]nc(N)c2C#N)c2ccccc2n1	3	2
O=C1OC2(C(=O)c3ccccc3C2=O)C(=C(O)c2ccc(Br)cc2)C1=O	-1	-3

Molecules listed so far that contain two or more sulfur atoms:
SMILES	NPYLR7 agonist	NPYLR7 agonist max-min
Cc1sc2ncnc(SC(C)C(=O)O)c2c1C (stereo not given)	8	4
CCOC(=O)CC(=O)CSC1=NS(=O)(=O)c2cc(Cl)ccc2N1	9	3
O=C(O)c1csc(CSc2nnc(-c3ccco3)n2-c2ccccc2F)n1	14	12
CC1(C)CC(C=Cc2cccs2)=Nc2ccccc2S1	-2	-5
O=C(CSc1nnc(SCC(=O)NC2CCCCC2)s1)NC1CCCCC1	8	8

3 records drawn at random from those above:
SMILES	NPYLR7 agonist	NPYLR7 agonist max-min
CC=CC=CC(=O)OCc1cc(=O)n2cc(Br)ccc2n1	3	11
O=C(N=Nc1c(O)[nH]c2ccc(Br)cc12)c1cccc(Cl)c1	-3&3	-8&-10
CNC(=O)C1CN(CC(=O)Nc2ccccc2C(C)=O)c2ccccc2O1 (stereo not given)	15	12

New compounds follow:
SMILES	NPYLR7 agonist	NPYLR7 agonist max-min
Cc1cc(C)n(CC(C)NCc2noc(C3CCCC3)n2)n1 (stereo not given)	17	12
N#CC(C(=O)c1ccc2c(c1)S(=O)(=O)c1ccccc1C2=O)c1ccc2ccccc2n1 (stereo not given)	0	-1
Cc1cc(-n2ccnc(SCC(N)=O)c2=O)ccc1Br	7	17
CCn1ncc(S(=O)(=O)N2CCC(O)(c3ccc(C)cn3)CC2)c1C	7	4
COc1ccc(CCNc2cc(=O)n3ccccc3n2)cc1	2	-2
O=C(c1csnn1)N1CCCC(N2CCN(c3cccc(C(F)(F)F)c3)CC2)C1 (stereo not given)	1&6	3&3
CCN(CC)c1ccc(NC(=O)CCCn2nc(-c3cccs3)ccc2=O)c(C)c1	2	6
CCOc1ccc(NC(=O)C2=COCCO2)cc1OCC	-3	-4
CC(C)C(Sc1nc(=O)[nH]n1C)C(=O)NC(N)=O (stereo not given)	3	12
CC(C)C1NC(=O)N(c2ccc(Br)cc2)OC1=O (stereo not given)	4	3
Cc1cccc(C(=O)Nc2c(C)nc3ccccn3c2=O)c1	4	1
Cc1[nH]n(-c2nc(-c3cccc([N+](=O)[O-])c3)cs2)c(=O)c1C(c1ccccc1)C(C#N)C(N)=O (stereo not given)	0	-6
Cc1nnc(SCC(=O)NCc2ccco2)c2c1cnn2-c1ccccc1	-15	-21
Cc1ccc(N2CC(C)Cn3c2nc2c3c(=O)n(Cc3cc(C)ccc3C)c(=O)n2C)cc1 (stereo not given)	6	6
CN(Cc1ccc2nccnc2c1)C(=O)c1ccc(OC2CCN(C(=O)C3CC3)CC2)cc1	3	2
CCCOC(=O)CNC(=O)c1c(Br)nn(C)c1N	7	5
CC(=O)Nc1ccc(NC(=O)c2c[nH]c(=S)n2-c2ccccc2)cc1Cl	-3	-5
CC(C)N1CCC(Nc2ccc3c(-c4ccc(F)cc4)noc3n2)CC1	4	1
C=Cc1ccc(Cn2cc(C(=O)NCc3cccc(C(F)(F)F)c3)sc2=O)cc1	4	-2
CC(C)CN(CC(=O)N(Cc1ccc2c(c1)OCO2)Cc1cccs1)C(=O)Nc1cccc(F)c1	14	16
c1cnc(NCc2cccnc2N2CCc3ccccc3C2)nc1	13	3
CCc1nc2ccc(C(=O)NCCc3c[nH]c4ccccc34)cn2c1N(C)CCCc1ccccc1	11	8
Nc1ccnc(-c2cccc3ccsc23)c1	3	0
COc1ccc(OC)c(-c2nc3c(Cl)cc(Cl)cn3c2NCc2ccccc2)c1	7	11
CCc1ccc(NC(=O)CSc2ccc(S(=O)(=O)N3CCOCC3)cn2)cc1	6	1
Cc1cc(C)n(CCNC(=O)c2cc(C)nc3cc(F)ccc23)c(=O)n1	6	-4
COc1ccc(OC)c(NC(=O)c2sc(C)nc2C)c1	0	-2
CCN(C)c1ccccc1CNC(=O)CNC(=O)c1ccc(F)cc1	11	8
COc1ccc2c(c1)CCC(=Cc1ccccc1Cl)C2=O	2	2
